hNpr1 antagonist – blocks ANP-stimulated signaling of human Npr1 receptor; 76,000 compounds, 1.6% hits; HEK293 hNpr1 GloSensor cGMP, ANP-stimulated luminescence; AID 1347048; P16066; Potency, µM (top dose mostly 46.3 µM), inactives show at the top dose activity change, negative = inhibition, usual class: inhibitors; active = well fitted inhibition curve with a large enough effect; inconclusive = small, poorly fitted or top-dose-only effect; inactive = no such curve, though single readings can be large or run the other way;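 note: nearly all actives have a fitted effect of over 60% in size; nearly all hits also lower the signal before the agonist is added; a reference antagonist and vehicle were the controls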
Target sequence (P16066 whole entry, looked up): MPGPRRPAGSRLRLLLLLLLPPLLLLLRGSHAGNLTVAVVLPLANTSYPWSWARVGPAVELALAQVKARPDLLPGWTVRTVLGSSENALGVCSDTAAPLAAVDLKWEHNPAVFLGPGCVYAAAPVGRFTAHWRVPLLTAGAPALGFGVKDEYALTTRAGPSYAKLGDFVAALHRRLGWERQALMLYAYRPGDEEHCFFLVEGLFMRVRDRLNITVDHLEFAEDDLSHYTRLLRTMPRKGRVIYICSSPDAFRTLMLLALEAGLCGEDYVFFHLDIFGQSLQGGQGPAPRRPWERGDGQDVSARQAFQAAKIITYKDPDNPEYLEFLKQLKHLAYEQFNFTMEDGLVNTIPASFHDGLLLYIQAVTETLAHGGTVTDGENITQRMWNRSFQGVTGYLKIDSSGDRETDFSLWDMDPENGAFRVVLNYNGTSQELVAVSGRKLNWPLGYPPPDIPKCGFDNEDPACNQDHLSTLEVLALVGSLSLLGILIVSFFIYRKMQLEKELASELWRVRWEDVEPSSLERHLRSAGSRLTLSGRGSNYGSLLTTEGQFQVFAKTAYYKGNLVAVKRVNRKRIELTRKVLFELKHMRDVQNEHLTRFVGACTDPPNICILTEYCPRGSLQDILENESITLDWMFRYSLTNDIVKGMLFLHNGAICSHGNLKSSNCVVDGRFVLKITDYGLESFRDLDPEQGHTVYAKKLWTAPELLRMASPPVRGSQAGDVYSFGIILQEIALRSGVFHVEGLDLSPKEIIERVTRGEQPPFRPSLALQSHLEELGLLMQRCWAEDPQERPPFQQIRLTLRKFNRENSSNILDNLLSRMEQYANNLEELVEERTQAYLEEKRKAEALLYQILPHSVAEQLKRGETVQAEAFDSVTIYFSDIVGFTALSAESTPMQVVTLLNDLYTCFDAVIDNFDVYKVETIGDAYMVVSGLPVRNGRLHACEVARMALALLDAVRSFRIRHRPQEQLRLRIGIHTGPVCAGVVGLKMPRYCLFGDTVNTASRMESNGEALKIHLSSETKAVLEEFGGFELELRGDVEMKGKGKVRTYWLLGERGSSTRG
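Compound pre-incubated 30 min at room temperature on GloSensor-loaded HEK293 cells stably carrying hNpr1 and the pGS-40F cGMP biosensor. Stimulation uses hNppA at 0.1 nM final; luminescence is taken at baseline and 20 min post-agonist.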
* marks the source's active call; other numbers are inactive results; ? = inconclusive; & = joins results of further samples; [ ] = dose if it differs, or a comment. % is set by controls: 0 for no effect and ±100 for the full control effect; potency is the fitted concentration of half-maximal effect. This is a subset (hit frequency here may not be typical).

hNpr1 antagonist,smiles
2%,CC1CN(c2ccccc2C#N)C(=O)CN1C(=O)c1cnc2ccccc2c1 (configuration not stated)
0%,O=C(N[C@@H]1CN(C(=O)Nc2ccc(F)cc2)CCC[C@H]1O)c1ccc(OCCN2CCCC2)cc1
25µM*,CN1C[C@@H](NC(=O)Nc2cccc(C#N)c2)C[C@H]1c1nc(-c2ccc(Cl)cc2)no1
4%,COc1ccc(-c2onc(C)c2C(=O)N[C@H](C)c2cccc(OC)c2)cc1
-5%,COc1ccc(C(=O)N2CCC(Cc3nc(-c4cccnc4)n[nH]3)C2)cc1F (configuration not stated)
0%,CC(C)(C)c1ccc(C(=O)N2CCC(c3n[nH]c(=O)n3-c3ccccc3)CC2)cc1
7%,O=C1CC(C(=O)O)C2(CCN(c3ncc(C(=O)O)cc3Cl)CC2)N1 (configuration not stated)
8%,CSCc1noc(CNC(=O)c2cn(CCN)nn2)n1
-1%,C[C@@H]1CN(C(=O)Cn2c3c(c(=O)n2Cc2ccccc2)CCN(Cc2ccccc2)C3)C[C@H](C)O1
1%[70.6 µM],COc1ccc(-n2c(=O)c3c(n2Cc2ccccc2)CN(Cc2nccn2C)CC3)cc1
7.9µM*,O=C(Nc1ccccc1)N[C@H]1CO[C@H]2[C@@H]1OC[C@H]2OC(=O)Nc1ccc(Oc2ccccc2)cc1
-1%,O=C1CC(c2noc(-c3cc(F)ccc3F)n2)CN1c1ccc(F)cc1 (configuration not stated)
-16%[70.6 µM],CNC(=O)CCn1ncc2cc(OC3CCc4cccc(-c5cccnc5)c43)ccc21 (configuration not stated)
0%,Cc1noc(C)c1S(=O)(=O)N1CCC2(CC1)CC(N1CCN(C)CC1)CCO2 (configuration not stated)
-24%,CCOC(=O)c1cccc(NC(=O)c2ccc3c(c2)N(CC)C2CCCCCN2C3=O)c1 (configuration not stated)
0%,COCc1cc(CN2C[C@H](NC(=O)CO)[C@@H](C3CC3)C2)ccc1OC
0%,COc1ccc(CC(=O)N2CC3CC(C2)[C@H]2CCCC(=O)N2C3)cc1Cl (some centres not stated)
-13%,CCN(Cc1cnn(CC)c1)C(=O)CN1CC2CC(C1)[C@H]1CCCC(=O)N1C2 (some centres not stated)
1%,c1cc2c(cc1N1CCC(N3CCC4(CCNCC4)C3)CC1)OCO2
3%,CNc1nc(NCCC2CN(c3cnn(C)c(=O)c3)CCO2)ncc1F (configuration not stated)

(continued)
hNpr1 antagonist,smiles
?,CCN1CCN(CCNC(=O)c2cccc3c2CCN3C(=O)Nc2ccc(C)cc2)CC1
4%,O=C(N1CCN(c2ccccc2)CC1)C1(CCO)CC12CCOCC2 (configuration not stated)
1%,CCCc1noc(-c2ccn3c(CNC(=O)c4ccc(C)c(C)c4)nnc3c2)n1
-17%[70.6 µM],CC1(C(=O)N2CCN(c3ccccn3)CC2)CCc2cnc(Nc3ccccc3)nc21 (configuration not stated)
6%,CNC(=O)[C@@H]1CN(C(=O)c2cccc(OC(F)(F)F)c2)C[C@H]1CO
-2%[70.6 µM],Cc1ccc(CN2C(=O)[C@@H]3C[C@@H](O)CN3C3(CN(C4Cc5ccccc5C4)C3)C2=O)o1
6%,COc1cccc(C(=O)N[C@@H]2CN(Cc3cccnc3)C[C@H]2CN(C)C)c1OC
-11%&-20%,COc1cccc(C(=O)N2CCC3(C2)C(=O)N(CCc2ccccc2)c2ccccc23)c1 (configuration not stated)
4%,CN(C)C(C(=O)N1CCN(Cc2nccn2C)CC1)c1cccc(F)c1 (configuration not stated)
?,COc1ccccc1CN(Cc1ccccc1OC)C[C@@H]1C=C(C)[C@H](Cc2nc3c(C)cccc3[nH]2)C[C@H]1C(C)C
?,O=C1c2cnc(-c3ccccc3)nc2OCCN1c1ccccc1
-9%,CN(C)CC1(O)CCC2(CCN(C(=O)CCc3ccccc3)CC2)CC1
-16%,Cc1cc(C(=O)N2CCC(c3noc(-c4ccccc4)n3)C2)n[nH]1 (configuration not stated)
?,Cc1cccc(CC(=O)N2CCC(n3cc(-c4nc(-c5ccccc5)no4)nn3)C2)c1 (configuration not stated)
5%,COC(=O)[C@@H](C)NC(=O)[C@H]1CN(C(=O)c2cccnc2)CCN1C(=O)NC1CCCCC1
0%,C[S+](=O)([O-])N1CCCC(c2nn(-c3cccc(Cl)c3)c(=O)[nH]2)C1 (configuration not stated)
-4%,CN(CC1CCOC1)C(=O)c1cc(F)ccc1Cl (configuration not stated)
4%,CN(C)C[C@@H]1CN(c2ccccn2)C[C@H]1NC(=O)c1ccc(C#N)cc1
3%,O=C(Cn1nc2c(cc1=O)CCCCC2)Nc1ccc(C(F)(F)F)nc1
10%,CCc1ccc(CN2CCC3(CCC(=O)N(Cc4cnc(C)cn4)C3)CC2)o1

Continuation:
hNpr1 antagonist,smiles
-1%,CCN1c2cc(C(=O)NCc3ccc(SC)cc3)ccc2C(=O)N2CCCCC21 (configuration not stated)
1%[70.6 µM],O=C(O)CCn1ncc2cc(OCC3CCN(C(=O)OC4CCCC4)CC3)ccc21
0%,COc1cccc(CC(=O)N2CCC3(CC2)OC(=O)N(Cc2ncccn2)C3(C)c2ccccc2)c1 (configuration not stated)
-5%,CNC(=O)c1cccc(-n2ccnc2-c2ccc(C#CCCO)cc2)c1
0%,COc1ccc(NC(=O)N2C[C@@H]3C[C@H](C2)c2c(NC(=O)Nc4ccccc4)ccc(=O)n2C3)cc1
0%,COC(=O)c1c(NC(=O)c2ccc(OC)cc2)c2cc(NC(C)CCn3cccn3)cnc2n1C (configuration not stated)
?,O=C(N1CCC(c2nc(-c3ccccc3)no2)C1)C1(c2ccccc2)CC1 (configuration not stated)
7%,O=C1CCN(S(=O)(=O)c2ccccc2)CCCC(C(=O)NCCc2ccncc2)CCN1 (configuration not stated)
3%,CCCNC(=O)CC(c1ccc(OC)c(OC)c1)c1c[nH]c2c(CC)cccc12 (configuration not stated)
0%,Cc1ccsc1C(=O)N1CCC2(CC1)NC(=O)N(c1cccc(F)c1)N2
3%,CC(O)c1cc2n(n1)CCN(Cc1ccc(CN(C)S(C)(=O)=O)o1)C2 (configuration not stated)
4%,Cc1ccc(OC2(C(=O)NCC3COc4ccccc4O3)CCNCC2)cc1 (configuration not stated)
2%[70.6 µM],COCCN1C(=O)CO[C@H]2CN(Cc3cnc4ccccc4c3)C[C@H]21
-4%,Cc1ccc(C(=O)N2C[C@@H](COCC(N)=O)[C@H](c3ccncc3)C2)cc1
-5%,CN(C)[C@@H]1CN(C(=O)c2ccccc2OC(F)(F)F)C[C@H]1CO
-2%,CC(=O)N(C[C@H]1O[C@@H](CC(=O)NC(C)C)[C@H](O)[C@@H]1O)C[C@H]1O[C@@H](CC(=O)NC(C)C)[C@H](O)[C@@H]1O
-18%[70.6 µM],CC1(CCCCN2CCOCC2)COc2ccc(C(=O)Nc3ccccc3)cc2N1 (configuration not stated)
-10%,CC(C)NC(=O)O[C@@H]1CC[C@]2(C)C(CC[C@@H](O)[C@H]2CC(=O)NCc2ccc(F)cc2)[C@]1(C)CO (some centres not stated)
2%,CN(C)CC1(O)CCC2(CCN(C(=O)c3[nH]nc4c3CCc3ccccc3-4)CC2)CC1
3%,CSc1cccc(NC(=O)Cn2c(N3CCOCC3)nc(C)cc2=O)c1

(further entries)
hNpr1 antagonist,smiles
-18%[70.6 µM],O[C@H]1CN[C@H](c2nc(-c3ccc(OC(F)(F)F)cc3)no2)C1
-3%[70.6 µM],O=C(Nc1nccs1)c1ccc2c(c1)OCCN(C1CCC1)C2
6%,CC(C)CCNC(=O)C1CCCN(C2CCN(CCc3ccccc3)CC2)C1 (configuration not stated)
-17%[70.6 µM],O=C(NC1CCC(O)CC1)c1ccc2c(c1)OCCN(c1ccccc1)C2 (configuration not stated)
0%,Cc1cc(C(=O)N2CCC(Cc3nc(-c4cccnc4)n[nH]3)C2)nn1C (configuration not stated)
-16%,COC[C@@H]1CN(C(=O)c2ccc(C#N)cc2)C[C@H]1C(N)=O
-2%,Cc1noc(C)c1S(=O)(=O)NCCc1noc(-c2cccnc2)n1
1%,CCCS(=O)(=O)N1CCC2(CC1)CC(=O)N(Cc1cc(F)cc(F)c1)C2
-6%,CCN(C(=O)CN1C(=O)C(c2ccccc2)=NC12CCCCC2)c1cccc(C)c1
2%,O=C1CCN(S(=O)(=O)c2ccccc2)CCCNCCN1
3%,CCOCCn1c(=O)n(Cc2cc(OC)ccn2)c2cc(C(=O)O)cnc21
-2%,O=C(NCc1ccc(F)cc1)c1nc(-c2cc(Cl)cc(Cl)c2)c2ccccn12
0%,CC(C)CN1C(=O)c2ccccc2C(C(=O)NC(C)C)C12CCCCC2 (configuration not stated)
11µM*,CC1=NS(=O)(=O)N(C)C=C1C(=O)OCc1noc(-c2ccccc2Cl)n1
2%,COCCOc1ccc(C(=O)N[C@@H]2CN(C(=O)Nc3ccc(F)cc3)CCC[C@H]2O)cc1
?,COc1ccc(-c2cnc3[nH]cc(CC(=O)Nc4cccc(N(C)C)c4)c3c2)cc1
1%,COCC1CN(C(C)=O)CC12CCN(Cc1cc(Cl)ccc1F)CC2 (configuration not stated)
3%,CCCNC(=O)NCC(=O)N1CCCCCCNC(=O)CC1c1ccccc1 (configuration not stated)
0%,COc1ccc(C(=O)N2CCC(N3C(=O)C(OCC4CC4)C34CCOCC4)CC2)cn1 (configuration not stated)
1%,Cc1ccc(C(=O)N2CCCCC2C(=O)Nc2cccc(-c3nnc(C)s3)c2)cn1 (configuration not stated)

14 entries out of the list, ordered by SMILES length, lowest first.
hNpr1 antagonist,smiles
8%,CSCc1noc(CNC(=O)c2cn(CCN)nn2)n1
2%,O=C1CCN(S(=O)(=O)c2ccccc2)CCCNCCN1
-5%,CNC(=O)c1cccc(-n2ccnc2-c2ccc(C#CCCO)cc2)c1
0%,CC(C)CN1C(=O)c2ccccc2C(C(=O)NC(C)C)C12CCCCC2 (configuration not stated)
7%,O=C1CC(C(=O)O)C2(CCN(c3ncc(C(=O)O)cc3Cl)CC2)N1 (configuration not stated)
-18%[70.6 µM],O[C@H]1CN[C@H](c2nc(-c3ccc(OC(F)(F)F)cc3)no2)C1
0%,COc1ccc(CC(=O)N2CC3CC(C2)[C@H]2CCCC(=O)N2C3)cc1Cl (some centres not stated)
0%,Cc1noc(C)c1S(=O)(=O)N1CCC2(CC1)CC(N1CCN(C)CC1)CCO2 (configuration not stated)
1%,Cc1ccc(C(=O)N2CCCCC2C(=O)Nc2cccc(-c3nnc(C)s3)c2)cn1 (configuration not stated)
0%,C[S+](=O)([O-])N1CCCC(c2nn(-c3cccc(Cl)c3)c(=O)[nH]2)C1 (configuration not stated)
0%,CC(C)(C)c1ccc(C(=O)N2CCC(c3n[nH]c(=O)n3-c3ccccc3)CC2)cc1
0%,COC(=O)c1c(NC(=O)c2ccc(OC)cc2)c2cc(NC(C)CCn3cccn3)cnc2n1C (configuration not stated)
2%,COCCOc1ccc(C(=O)N[C@@H]2CN(C(=O)Nc3ccc(F)cc3)CCC[C@H]2O)cc1
?,COc1ccccc1CN(Cc1ccccc1OC)C[C@@H]1C=C(C)[C@H](Cc2nc3c(C)cccc3[nH]2)C[C@H]1C(C)C

Continuation.
hNpr1 antagonist,smiles
3%,COc1cccc(CN2CCOCCNC(=O)[C@H]3CCCC[C@H]32)c1OC
3%,O=C(CCC1CCN(S(=O)(=O)c2ccccc2)CC1)NC1CCCC1
0%,COc1ccc(C2(C(=O)N3CCC(CC(=O)NC4CC4)C3)CC2)cc1 (configuration not stated)
1%[70.6 µM],CN1CCOc2c(C(=O)NCCC(N)=O)cc(-c3ccccc3OC(F)(F)F)cc21
-1%,N#Cc1cccc(NC(=O)O[C@@H]2CO[C@H]3[C@@H]2OC[C@@H]3Nc2nccc(-c3cccc(C#N)c3)n2)c1
-20%,Cc1ccc(C2Cn3nnc(C(=O)N4CCN(C(=O)c5cccc(F)c5)CC4)c3CO2)cc1 (configuration not stated)
0%[70.6 µM],CN(Cc1ccccc1)Cc1cccn1C
5%,O=C(c1cc[nH]c(=O)c1)N1C[C@@H](CO)[C@H](c2ccccn2)C1
0%[70.6 µM],CC(C)(C)C(=O)N1CCC(c2nn(-c3ccccc3)c(=O)[nH]2)CC1
-10%,COc1ccc(C2(C(=O)NCC34CCCC=C3NC(=O)CC4)CC2)cc1 (configuration not stated)
0%,CCCNC(=O)N(C1CCOCC1)C1CCN(C(=O)c2ccccn2)CC1
0%,CCc1ccc(C(=O)N2CCC3(CC2)N(CCOC)C(=O)CS3(=O)=O)cc1
-1%[70.6 µM],Cc1ccc(-c2nnc([C@H]3CCN(Cc4ccc(CO)o4)C3)o2)cc1
0%,O=c1n(-c2ccncc2)nc2n1CCN([S+](=O)([O-])c1cccc(C(F)(F)F)c1)C2
2%,CC(=O)NC[C@H]1CCN(C(=O)c2ccc(C(F)(F)F)cc2)C[C@H]1N(C)C
9%,Cc1cn2nc(C(=O)Nc3cccc(F)c3C)cc2c(N2CCCC2)n1
0%,CCCN(CC1CCOC1)C(=O)NCc1ccc(F)cc1 (configuration not stated)
4%,COCC(=O)N1CCC(Oc2ccccc2C(=O)NCCc2ncccc2C)CC1
1%,Cc1nn(C)cc1C(=O)NCCn1c(C)cnc1C1CCC1
6%[70.6 µM],O=C(NCC(F)F)C1CCCN1c1nc2ncccc2o1 (configuration not stated)
-7%,N#Cc1ccc(S(=O)(=O)N2CC[C@H]3C(=O)NCCCCCCN(Cc4ccncc4)[C@@H]3C2)cc1
2%,CCC(=O)N1CCC2(CC1)OCC(C(=O)NC1CC1)N2C(=O)c1cccc(OC)c1 (configuration not stated)
2%,O=C(C1CCCO1)N1CCC2(CC1)NCCc1c2[nH]c2ccccc12 (configuration not stated)

Three entries from above, ordered by their value in hNpr1 antagonist, largest number first.
hNpr1 antagonist,smiles
2%,O=C(C1CCCO1)N1CCC2(CC1)NCCc1c2[nH]c2ccccc12 (configuration not stated)
-7%,N#Cc1ccc(S(=O)(=O)N2CC[C@H]3C(=O)NCCCCCCN(Cc4ccncc4)[C@@H]3C2)cc1
-20%,Cc1ccc(C2Cn3nnc(C(=O)N4CCN(C(=O)c5cccc(F)c5)CC4)c3CO2)cc1 (configuration not stated)

High-throughput results (PubChem BioAssay)
